Source: PubChem BioAssay
TRPML1 inh – inhibitors of human TRPML1 channel; TRPML1-inducible cells, Ca2+ dye fluorescence, FDSS; hits give low values; inhibition of EC80 agonist-evoked calcium signal; activity change, negative = inhibition, % (no concentration beside the values); hit rate 0.02% among 390,000; in the data active means activity change below about -50%; inconclusive means about -30% to -50%; inactive means above about -30%;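 note: stimulus is agonist 54-4 at its EC80 concentration; % is set by controls: 0 for no effect and ±100 for the full control effect; compound concentration not given in the record; the text of the record puts the active cut at -80%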
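TRPML1-DL cells, Tet-induced overnight (~16 h, 37 °C) at 1,500 cells/well, were loaded with Ca8 no-wash dye plus quencher for 45-90 min at room temperature. Compounds were pinned during FDSS kinetic reading; agonist 54-4 at EC80 (4 uM final) then added.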
D2 agonist – activates the human D2 dopamine receptor | P14416 | DiscoveRx PathHunter D2 beta-arrestin, luminescence, 90 min; 100% = 57 uM dopamine signal | activation, % (test concentration not listed) | hit rate 0.084% among 360,000 | AID 624465; in the data active = activation above about 40%; inconclusive = about 15% to 40%; inactive = below about 15%; note: compound concentration not given in the record; the text of the record calls up to 30% inactive
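DiscoveRx PathHunter D2 beta-arrestin cells (2,100/well) attached overnight, then compound-stimulated 90 min at 37 C in HBSS/10 mM HEPES/0.1% Tween-20 buffer; beta-galactosidase complementation read by luminescence after 1 h at ambient temperature. Dopamine 57 uM final (EC100) as control.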
TRPML1 ag – human mucolipin-1 channel agonism. hit rate 0.12% among 410,000. Q9GZU1. TRPML1-expressing cells, Ca2+ dye fluorescence, FDSS; host cell line not named in the record; reference of the full effect not given here. AID 624414. activation, % (no concentration beside the values); in the data active = activation above about 50%; inconclusive = about 30% to 50%; inactive = below about 30%; note: 0% is about no effect; the text of the record puts the active cut at 80%
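Agonist activity was taken from a 110 s kinetic Ca2+ dye read on the FDSS after pinning compounds onto TRPML1-DL cells. The cells were seeded at 1,500/well with Tet inducer, incubated about 16 h, then dye-loaded at room temperature.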
PINK1 modulator – modulators of PINK1 expression | Potency, µM (titrated, usually from 76.6 µM), for inactives: at the top dose activation (PINK1 increase), usual class: activators | hit rate 0.2% among 410,000 | AID 624263 | PINK1 immunofluorescence, high-content cytometry, 24 h; active = well fitted activation curve with a large enough effect; inconclusive = small, poorly fitted or top-dose-only effect; inactive = flat fitted curve, though single readings scatter; cell line not stated here;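 note: potency is the fitted concentration of half-maximal effect; % of control where 0% means no effect; nearly all actives have a fitted effect of over 65% in size; a mitochondrial uncoupler was the plate control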
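PINK1 protein level read as immunofluorescence by microplate cytometer in a fixed, stained stable cell line after 24 h exposure to five compound concentrations, with CCCP as control.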
Six1-Eya2 inh – inhibitors of human Six1/Eya2 interaction | hit rate 0.56% among 360,000 | AID 651725 | Q15475+O00167 | activity change, % (no concentration beside the values) | AlphaScreen GST-Six1/His-Eya2 binding, biochemical; hits give low values; control for the full effect not named in the record; in the data active = activity change below about -65%; inconclusive = about -30% to -65%; inactive = above about -30%; note: % is set by controls: 0 for no effect and ±100 for the full control effect; compound concentration not given in the record
Target sequence (O00167 whole entry, looked up): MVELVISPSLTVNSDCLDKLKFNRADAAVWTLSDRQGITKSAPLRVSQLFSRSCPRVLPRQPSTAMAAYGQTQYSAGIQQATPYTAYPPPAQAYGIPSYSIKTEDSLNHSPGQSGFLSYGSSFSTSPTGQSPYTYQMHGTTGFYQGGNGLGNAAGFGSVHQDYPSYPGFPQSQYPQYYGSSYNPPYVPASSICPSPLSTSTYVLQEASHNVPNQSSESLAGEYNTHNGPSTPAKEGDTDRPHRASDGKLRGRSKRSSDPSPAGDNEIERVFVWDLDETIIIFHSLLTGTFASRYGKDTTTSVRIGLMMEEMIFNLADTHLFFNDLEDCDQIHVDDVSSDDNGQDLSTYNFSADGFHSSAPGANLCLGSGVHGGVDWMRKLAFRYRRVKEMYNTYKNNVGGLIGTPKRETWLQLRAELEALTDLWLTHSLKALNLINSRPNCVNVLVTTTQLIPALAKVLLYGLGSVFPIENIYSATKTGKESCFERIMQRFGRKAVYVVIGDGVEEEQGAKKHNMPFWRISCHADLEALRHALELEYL
Target sequence (Q15475 whole entry, looked up): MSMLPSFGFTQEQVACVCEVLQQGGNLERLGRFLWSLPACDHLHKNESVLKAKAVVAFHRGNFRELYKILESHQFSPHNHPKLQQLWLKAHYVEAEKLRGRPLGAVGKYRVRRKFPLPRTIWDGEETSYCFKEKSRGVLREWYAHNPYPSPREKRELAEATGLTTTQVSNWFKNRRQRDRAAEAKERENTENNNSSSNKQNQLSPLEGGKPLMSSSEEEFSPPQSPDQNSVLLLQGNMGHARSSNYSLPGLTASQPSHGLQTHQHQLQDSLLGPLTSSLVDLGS
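Homogeneous AlphaScreen proximity assay pairing GST-Six1 with His-tagged Eya2 (added as 5X mix: 250 nM and 500 nM) in 50 mM Tris pH 8.0, 300 mM NaCl, 1 mM TCEP. Glutathione donor and nickel acceptor beads; 1 h, 37 °C, dark.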
D2 potentiator – potentiates the human D2 dopamine receptor allosterically. P14416. hit rate 0.23% among 360,000. potentiation, % (no concentration beside the values). AID 624464. DiscoveRx D2 beta-arrestin cells, luminescence, 90 min; 100% = 57 uM dopamine signal; active = potentiation of 50% or more; inconclusive = 30% to 50%; inactive = 30% or less;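 note: compound concentration not given in the record; tested on top of an EC20 dose of dopamine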
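D2 cells co-treated with compound plus 50 nM dopamine (EC20) for 90 min at 37 deg C to detect potentiation. Beta-arrestin recruitment was read as enzyme-fragment luminescence after 1 h at ambient temperature. Full response was set by 57 uM dopamine.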
* marks the source's active call; other numbers are inactive results; ? = inconclusive; · = no result given; & = joins results of further samples; [ ] = another dose, or the depositor's remark.

SMILES	TRPML1 inh	D2 agonist	TRPML1 ag	PINK1 modulator	Six1-Eya2 inh	D2 potentiator
Cc1noc(C)c1C(=O)N(C)C[C@@H]1OCc2ccccc2-c2c(n(C)c3ccccc23)C(=O)N([C@H](C)CO)C[C@H]1C	10	-3.0	0.5	1.5%	-8	-1
O=S1(=O)N=C(Oc2cccc3ccccc23)c2ccccc21	-5	-1.0	-0.8	0.4%	4	0
COc1ccccc1NC(=O)Cn1c(=O)c(N(C)C)c(N)n(C)c1=O	17	0.0	-1.8	1.5%	4	-11
Cc1nn(C)c(Oc2ccccc2)c1CCNC(=O)CCl	-5	0.1	0.3	4.1%	0	1
CC1(C)OC(C)(C)/C(=C\c2ccc(OCC(N)=O)cc2)C1=O	-11	6.2	1.9	1.0%	6	2
CC(=O)Nc1ccc(S(=O)(=O)NCC(=O)OCC(=O)N2CCCCCC2)cc1	24	-0.5	-0.8	-1.5%	3	-1
O=C(CN1C(=O)NC2(CCCC2)C1=O)Nc1nc2ccccc2s1	-10	-3.2	0.0	10%	0	-19
O=[N+]([O-])c1cc2c(cc1CN1CCN(c3ccccc3F)CC1)OCO2	24	-2.6	1.4	0.5%	-16	-2
Nc1c(-c2nc(-c3ccccc3Cl)no2)nnn1-c1ccccc1F	24	·	2.0	1.6%	·	·
O=c1c(C(c2nnnn2C2CCCCC2)N2CCCCC2)coc2ccc(Cl)cc12 (configuration not stated)	-13	-1.4	1.2	5.9%	6	-9
O=C(CCCN=C1NS(=O)(=O)c2ccccc21)OCC(=O)c1ccc(Br)cc1	-3	-7.7	3.1	2.4%	0	-26
Cc1cc(NC(=O)c2ccc3c(c2)OCO3)no1	6	-2.4	0.5	1.0%	10	-11
CCCn1nc(-c2ccccc2)c2nc3ccccc3nc21	-5	-11	18	10%	40	-6
O=C(N/N=C/c1ccccc1Cl)c1ccncc1	·	-1.6	·	4.1%	2	-8
O=C(NCc1ccccc1Cl)c1ccc2c(O)c(S(=O)(=O)c3ccccc3)c(=O)[nH]c2c1	12	·	-0.5	-1.9%	·	·
Cc1ccccc1NC(=O)COC(=O)c1ccc(C)c(S(=O)(=O)N2CCCCC2)c1	13	0.4	0.5	0.5%	-3	-14
Cc1cc(F)ccc1Oc1cc(NN2CCCCC2)c([N+](=O)[O-])cc1[N+](=O)[O-]	-2	-0.4	0.6	6.4%	-21	-6
Cc1ccc(S(=O)(=O)N2CCN(S(=O)(=O)N3CCCCC3)CC2)cc1	0	-3.6	0.5	-1.4%	6	-11
CCN1CCN(c2oc(-c3ccc([N+](=O)[O-])cc3)nc2C#N)CC1	13	-2.0	1.0	-0.7%	-2	-1
CCCCN(C(=O)C1CSC2(C)CCC(=O)N12)c1c(N)n(Cc2ccccc2)c(=O)[nH]c1=O (configuration not stated)	-5	-6.4	-0.4	0.9%	2	-43
CCN1CCN(C(=S)Nc2ccc(Cl)c(Cl)c2)CC1	-8	-2.0	1.8	0.0%	2	-19
O=C(Nc1ccccc1C(=O)O)c1cc(S(=O)(=O)N2CCOCC2)c(Br)s1	10	-3.6	2.0	-0.1%	-8	-10
CCCOc1ccc(NC(=O)CC2C(=O)N(c3ccc(C)cc3)C(=O)N2C2CCCC2)cc1 (configuration not stated)	7	·	-0.5	1.4%	·	·
COc1ccc(NC2CCCN(C(=O)C3(C)CCCCC3)C2)cc1OC (configuration not stated)	3	7.7	-1.1	-0.9%	-7	-12
COc1ccc(Nc2cc(C)nc3ccccc23)cc1	9	-1.2	1.0	-0.1%[38.3 µM]	-4	-14
NC(=O)CSc1nnnn1CC(CC(=O)O)c1ccccc1 (configuration not stated)	15	0.1	3.5	-2.7%	8	0
Cc1cc(C)c(NC(=O)CC(=O)c2ccccc2)c(Cl)c1	2	-2.9	-0.6	1.5%	0	-13
Cc1ccc(C)c(S(=O)(=O)N2CCCC2CNC(=O)C(=O)NCCc2ccco2)c1 (configuration not stated)	-5	0.2	-1.3	8.2%	-8	3
CCCCN(c1ccccc1)S(=O)(=O)c1ccc2c(c1)CCN2C(=O)CCC(=O)O	13	-2.7	2.4	-4.5%[38.3 µM]	-2	-15
CCCCCN(C(=O)CCC(=O)OC(C)C(=O)NC1CCCCC1)c1c(N)n(CCCC)c(=O)[nH]c1=O (configuration not stated)	5	-0.7	0.2	0.3%	12	-3
Cn1cc(C(=O)NC2CCCCCCC2)c(=O)c2cc(S(=O)(=O)N3CCCC3)ccc21	6	-2.1	-0.2	1.9%	0	-6
O=Cc1cn(CCC(=O)O)nc1-c1cccc2ccccc12	4	3.0	1.7	-1.5%	4	-3
CCCSc1nnc(NC(=O)c2ccco2)s1	-4	-1.2	0.1	0.0%	6	-15
CC(C)(CNS(=O)(=O)c1ccc(Cl)cc1)N1CCCCC1	-9	-1.8	-0.2	0.8%[38.3 µM]	1	-9
CCOC(=O)c1c(C)n(C)c2ccc(OC)c(NC(=O)CN3CCCCC3)c12	-7	-5.2	0.7	0.0%	-6	-9
Cc1cc(-c2nc3ccccc3[nH]2)ccc1N	4	-1.4	-0.3	2.5%	-5	-14
COc1ccc(NC(=O)C2CCCN(S(=O)(=O)c3cn(C)cn3)C2)cc1Cl (configuration not stated)	-11	·	1.5	-1.0%	·	·
Cc1nc2ccc(C(=O)N3CCN(C(=O)c4ccco4)CC3)cn2c1N(C)C(=O)CCc1ccccc1	·	-3.8	-0.8	1.2%	21	2
O=C(CSc1cn(CC(=O)N2CCCCC2)c2ccccc12)Nc1ccc(C(F)(F)F)cc1	-8	·	-0.5	2.0%	·	·
CCOC(=O)N1CCN(CC(=O)Nc2c(C(=O)OC)[nH]c3cc(C)ccc23)CC1	1	15	0.2	-1.1%	1	-7
CCOCCCN(Cc1ccco1)S(=O)(=O)c1csc(C(N)=O)c1	4	-0.8	-0.3	-0.9%	1	-1
COc1ccc(NC(=O)CCCN2C(=O)CCn3nc(-c4cn(C)c5ccccc45)cc32)cc1OC	-14	·	0.5	2.1%	·	·
Cn1nc(N)c2ncc(-c3ccc(Cl)cc3)nc21	-5	-1.4	-0.1	-0.9%	11	-11
CCOC(=O)c1cnn(-c2ncnc3sc(CC)cc23)c1N	-14	-3.6	-0.3	7.9%	0	-6
O=C(CC1COc2ccccc2O1)NCc1ccccc1 (configuration not stated)	-5	-2.2	2.4	0.0%[38.3 µM]	4	-2
C[C@@H]1CN([C@H](C)CO)C(=O)CCCn2nncc2CO[C@@H]1CN(C)C(=O)OCc1ccccc1	-11	-3.7	0.2	-0.8%	4	-3
CC(OC(=O)CC1CC2CCC1C2)C(=O)Nc1ccc(N2CCOCC2)cc1 (configuration not stated)	-6	4.3	0.8	-0.7%	0	-9
O=C(NCCCN1CCOCC1)c1cccc(S(=O)(=O)Nc2ccccc2Cl)c1	10	-4.1	0.1	4.5%	3	-16
Cc1ccc(C(=O)N2CCN(c3ccccc3O)CC2)cc1S(=O)(=O)N1CCCCC1	-12	-1.1	-0.1	0.9%	0	-23
CCOc1cc(C(=O)Nc2nnc(CC)s2)ccc1OCC(=O)N1CCOCC1	-8	-3.6	0.8	0.5%	0	8

More compounds follow:
SMILES	TRPML1 inh	D2 agonist	TRPML1 ag	PINK1 modulator	Six1-Eya2 inh	D2 potentiator
O=C1OCC2=C1C(c1ccc(Cl)cc1)c1cc3c(cc1O2)OCO3 (configuration not stated)	-5	-6.8	4.2	0.8%	24	-4
O=C(O)CSC(C(=O)Nc1ccc(Br)cc1)c1ccc(Cl)cc1 (configuration not stated)	-11	1.7	-0.1	-1.0%	5	-1
O=C(c1ccc(F)cc1)C1CCN(C(=O)c2ccncc2)CC1	-4	1.7	0.0	?	-2	-3
O=S(=O)(NCc1ccc2c(c1)OCO2)c1ccc2c(c1)oc1ccccc12	-6	-3.2	2.7	·	0	5
CCOc1ccccc1CNC(=O)CSc1n[nH]c(-c2ccccc2Cl)n1	-7	·	0.2	1.0%	·	·
CCOc1ccc2ccccc2c1C(=O)Nc1cc(=O)n(C)c(=O)n1C	-11	-7.0	-0.8	-1.0%	6	7
CC1CCN(C(=O)COC(=O)CNC(=O)C23CC4CC(CC(C4)C2)C3)CC1	-13	3.8	1.7	-2.6%	4	0
C[C@H](CO)N1C[C@H](C)[C@@H](CN(C)C(=O)Nc2ccccc2)Oc2ccc(NC(=O)CCN3CCOCC3)cc2C1=O	3	1.5	-0.2	-0.4%	-3	·
O=C(CNC(=O)c1ccc(F)cc1)N/N=C/c1cc(Br)ccc1OCc1ccccc1	-11	-4.6	3.0	-0.2%	-6	-19
CCOC(=O)/C(=N\O)C1=NC(C)(C)Cc2ccccc21	-1	1.9	0.0	1.2%	-4	-3

Complete entries, quoted from the list.
O=C(CNC(=O)c1ccc(F)cc1)N/N=C/c1cc(Br)ccc1OCc1ccccc1 is listed with TRPML1 inh = -11; D2 agonist = -4.6; TRPML1 ag = 3.0; PINK1 modulator = -0.2%; Six1-Eya2 inh = -6; D2 potentiator = -19
CC1CCN(C(=O)COC(=O)CNC(=O)C23CC4CC(CC(C4)C2)C3)CC1 is listed with TRPML1 inh = -13; D2 agonist = 3.8; TRPML1 ag = 1.7; PINK1 modulator = -2.6%; Six1-Eya2 inh = 4; D2 potentiator = 0

The list goes on:
SMILES	TRPML1 inh	D2 agonist	TRPML1 ag	PINK1 modulator	Six1-Eya2 inh	D2 potentiator
COc1ccc([N+](=O)[O-])cc1NC(=O)c1ccc(CN(c2ccccc2)S(C)(=O)=O)cc1	-15	-0.2	0.8	0.0%	-9	2
COc1cccc(NC(=O)C2CCN(S(=O)(=O)c3ccc4c(c3)NC(=O)C(C)S4)CC2)c1 (configuration not stated)	-1	4.2	0.2	?	-10	-17
CC1CCCCN1CCNS(=O)(=O)c1ccc2c(c1)oc(=O)n2C (configuration not stated)	-4	-0.6	1.0	-1.8%	0	0
Cc1ccc(NC(=O)c2cccs2)cc1NC(=O)c1ccccc1Cl	-4	3.9	3.6	3.9%	6	-6
CC(C)(C)C1CCc2c(sc3nc(-c4cc5cc(Br)ccc5oc4=O)[nH]c(=O)c23)C1 (configuration not stated)	0	·	0.1	1.8%	·	·
CN(C)CCN=Cc1c(O)n(Cc2ccc3c(c2)OCO3)c(=O)c2ccccc12	36	-1.7	0.7	-1.3%	-15	-23
O=c1cc(CSc2nc3ccccc3[nH]2)c2ccccc2[nH]1	0	-2.6	1.8	0.9%[38.3 µM]	-1	-4
COc1cccc(NC(=O)CSc2ccc3nnc(-c4ccccn4)n3n2)c1	10	-0.6	1.0	2.7%	-11	-4
CC(C)C[C@@H](CO)N1CCN(Cc2ccc(O)cc2)CCC1=O	6	2.1	-0.5&0.3	-0.4%	3	9
O=C1c2ccc(Oc3ccc([N+](=O)[O-])cc3)cc2C(=O)N1CCCO	-1	0.1	0.4	-0.5%	1	4
Cc1ccc(CNC(=O)Cn2ccc3cc(S(=O)(=O)N4CCCCCC4)ccc32)cc1	69	-1.3	1.0	-1.0%	0	-7
COc1cccc(CN2c3ccc(Br)cc3C(=O)CS2(=O)=O)c1	-8	3.0	0.1&-0.6	3.6%	-4	7
CNC(=O)c1ccsc1NC(=O)CCS(=O)(=O)c1ccccc1	-3	0.6	-0.3	0.2%	2	-24
